Six1-Eya2 blk – Six1/Eya2 interaction inhibition. Q15475+O00167. AlphaScreen GST-Six1/His-Eya2 binding, biochemical; stronger effect = lower value; control for the full effect not named in the record. activity change, % (concentration not given with the values). hit rate 0.56% among 360,000; in the data active = activity change below about -65%; inconclusive = about -30% to -65%; inactive = above about -30%; further: on the % scale 0 is the no-effect control and ±100 the full control effect
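GST-Six1 + His-Eya2 (5X stock: 250/500 nM); Tris pH 8.0, 300 mM NaCl, 0.05% BSA, 0.02% Tween 20; GSH donor/Ni acceptor beads; 1 h 37 °C dark; AlphaScreen readout.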
TRPV1 PAM – enhances activation of the human vanilloid receptor TRPV1. Q8NER1. TRPV1-expressing cells, Fluo-8 calcium influx, capsaicin EC20 potentiation; host cell line not named in the record; control for the full effect not named in the record. potentiation, % at 8.33 µM. hit rate 0.02% among 320,000; active means potentiation above 80%; inconclusive means 30% to 80%; inactive means below 30%; further: 0% is about no effect
Target sequence (Q8NER1 whole entry, looked up): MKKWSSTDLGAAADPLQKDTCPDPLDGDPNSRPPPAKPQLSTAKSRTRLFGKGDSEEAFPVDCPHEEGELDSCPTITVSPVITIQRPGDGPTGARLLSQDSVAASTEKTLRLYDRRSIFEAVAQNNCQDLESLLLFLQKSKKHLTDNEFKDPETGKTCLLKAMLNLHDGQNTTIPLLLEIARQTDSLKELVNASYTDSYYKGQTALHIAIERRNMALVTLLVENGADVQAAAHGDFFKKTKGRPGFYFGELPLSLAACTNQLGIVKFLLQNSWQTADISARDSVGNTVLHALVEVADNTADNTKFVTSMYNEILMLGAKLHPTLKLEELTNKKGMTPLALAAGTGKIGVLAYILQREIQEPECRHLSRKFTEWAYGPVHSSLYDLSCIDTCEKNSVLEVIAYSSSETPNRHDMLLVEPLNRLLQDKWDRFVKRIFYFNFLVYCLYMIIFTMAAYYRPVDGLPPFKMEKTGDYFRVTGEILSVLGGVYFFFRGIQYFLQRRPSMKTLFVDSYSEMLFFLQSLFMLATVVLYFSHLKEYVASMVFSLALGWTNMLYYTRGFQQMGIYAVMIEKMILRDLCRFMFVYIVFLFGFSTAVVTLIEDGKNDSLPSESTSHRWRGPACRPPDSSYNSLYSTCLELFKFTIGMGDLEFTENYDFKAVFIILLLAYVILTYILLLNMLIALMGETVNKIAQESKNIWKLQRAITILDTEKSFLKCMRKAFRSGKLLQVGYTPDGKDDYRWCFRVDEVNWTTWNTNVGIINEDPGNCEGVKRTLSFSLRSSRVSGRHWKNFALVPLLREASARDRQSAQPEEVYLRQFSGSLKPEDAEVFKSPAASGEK
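TRPV1-expressing cells were cultured overnight at 35.5C and loaded with Fluo-8 calcium dye for 40 to 90 min at room temperature. After a 10 s baseline, compound was added and calcium influx was read kinetically for 3 min (ex 480/em 520 nm).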
TRPML1 blocker – human mucolipin-1 channel inhibition. Q9GZU1. TRPML1-inducible cells, Ca2+ dye fluorescence, FDSS; stronger effect = lower value; inhibition of EC80 agonist-evoked calcium signal. activity change, negative = inhibition, % (no concentration beside the values). hit rate 0.02% among 390,000. AID 624415; in the data active means activity change below about -50%; inconclusive means about -30% to -50%; inactive means above about -30%;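 further: stimulus is agonist 54-4 at its EC80 concentration; on the % scale 0 is the no-effect control and ±100 the full control effect; compound concentration not given in the record; the text of the record puts the active cut at -80%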
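Calcium fluorescence in TRPML1-DL cells induced overnight with Tet: a 110 s read after compound pin addition, then a 110 s antagonist read after challenge with 54-4 at 4 uM final (EC80).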
D2 potentiator – potentiates the human D2 dopamine receptor allosterically; potentiation, % (concentration not given with the values); AID 624464; hit rate 0.23% among 360,000; DiscoveRx D2 beta-arrestin cells, luminescence, 90 min; 100% = 57 uM dopamine signal; active = potentiation of 50% or more; inconclusive = 30% to 50%; inactive = 30% or less;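 further: compound concentration not given in the record; tested on top of an EC20 dose of dopamine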
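PathHunter D2 cells, attached overnight at 37 deg C, received compound in DMSO plus dopamine at EC20 (50 nM final) for 90 min at 37 deg C. Beta-arrestin recruitment was read as luminescence after 1 h with detection reagent at ambient temperature.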
CtBP-E1A inh – CtBP/E1A binding inhibition; AlphaScreen GST-E1A/His-CtBP binding, 1536-well; stronger effect = lower value; control for the full effect not named in the record; activity change, % (concentration not given with the values); hit rate 0.49% among 340,000; in the data active means activity change below about -65%; inconclusive means about -30% to -65%; inactive means above about -30%; further: on the % scale 0 is the no-effect control and ±100 the full control effect
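Steps: dispense buffer (Tris pH 8.0, NaCl 300 mM, TCEP 1 mM, BSA, Tween 20); add 5X protein mix (GST-E1A, His-CtBP, 125 nM each); pin 23 nL compound; 2 h at 37 °C, dark; add 5X beads (50 ug/mL); 1 h; read.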
TRPML1 ag – human mucolipin-1 channel agonism | hit rate 0.12% among 410,000 | Q9GZU1 | TRPML1-expressing cells, Ca2+ dye fluorescence, FDSS; host cell line not named in the record; reference of the full effect not given here | activation, % (test concentration not listed); in the data active = activation above about 50%; inconclusive = about 30% to 50%; inactive = below about 30%; further: 0% is about no effect; the text of the record puts the active cut at 80%
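TRPML1-DL cells, Tet-induced overnight (~16 h, 37 degrees C), loaded 45-90 min at room temperature with Ca8 no-wash calcium dye plus quencher. FDSS fluorescence: 10 s baseline, compound pin-transfer, 110 s agonist read, then EC80 54-4 (4uM final) and 110 s antagonist read.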
Active calls of the source: *; ? = inconclusive; nt = no result given; & = joins results of further samples.

SMILES	Six1-Eya2 blk	TRPV1 PAM	TRPML1 blocker	D2 potentiator	CtBP-E1A inh	TRPML1 ag
COC(=O)c1sccc1S(=O)(=O)Nc1ccc(C)cc1	5.6	-7.9	-1.2	-19.5	nt	-1.0
NC(=S)C(c1ccccc1)c1ncc(C(F)(F)F)cc1Cl (stereo not drawn)	-1.5	3.9	-8.5	-13.0	-6.7	2.3
CCCNC(=O)C1(C)CCCN(C(=O)c2cccc(OC(F)(F)F)c2)C1 (stereo not drawn)	3.3	nt	-2.4	-12.5	2.1	0.3
N#CC1(Nc2cccc(Cl)c2)CCCC1	1.2	nt	-0.1	-1.6	-0.1	-0.5
O=C(c1ccco1)N1CCN(C(=O)c2nn3cccnc3c2Cl)CC1	-0.2	3.6	0.2	-5.6	3.2	0.1
COc1ccc(NS(=O)(=O)c2cccc3nsnc23)cc1OC	4.0	-3.7	20.4	18.2	1.5	0.3
Cc1cc(=O)[nH]c(SCC(=O)/C=C2\N(C)c3ccccc3C2(C)C)n1	-22.8	21.6	2.3	0.5	-12.1	6.0
O=C(c1ccco1)N1CCN(C(=O)C2CCCO2)CC1 (stereo not drawn)	3.2	0.4	9.4	14.4	12.2	0.2
COc1ccc(CCNC(=O)Cn2cnc3c(cnn3-c3ccccc3Cl)c2=O)cc1OC	0.8	-0.2	-8.1	-11.3	-2.4	-0.1
Cc1ccccc1-c1noc(C23CC4CC(CC(C4)C2)C3)n1	6.9	-14.3	-4.5	-9.2	8.2	-0.3
CCOC(=O)c1cc2c(c(-c3cccc(C#Cc4ccc(OC)c(OC)c4)c3)n1)[C@@H](CCO)N(S(=O)C(C)(C)C)C2 (stereo partly drawn)	2.7	nt	nt	0.2	11.1	-0.4
CC(=O)Nc1cccc2c1C(=O)N(c1cccc(C)c1)C2=O	2.9	15.9	-0.2	-19.2	10.0	0.2
O=[N+]([O-])c1cc(S(=O)(=O)Nc2ccc(Cl)cc2)ccc1N/N=C/c1ccncc1	-6.8	0.2	27.8	-0.1	-4.3	1.5
CN(Cc1cccc(F)c1)CC(O)COCc1ccccc1Cl (stereo not drawn)	9.2	-7.4	17.6	-9.0	8.8	1.0
CC(=NCc1ccccc1)c1ccccc1O	-6.5	nt	9.5	-1.6	12.1	-0.7
CC(C)CCNC(=O)C1CCCCN1S(=O)(=O)c1ccc(F)cc1 (stereo not drawn)	5.1	-9.8	21.6	-10.8	10.6	0.6
Cc1cc(-c2cc(-c3ccccc3)on2)nc(NCC2CC2)n1	4.1	-6.4	2.3	-2.7	-1.0	-1.0
Cc1ccc(OCC(=O)N2CCN(S(=O)(=O)c3ccc(Cl)cc3)CC2)c([N+](=O)[O-])n1	2.9	2.7	7.3	-3.4	-1.0	-0.9
CC(C)(C)c1ccc(OCCNC(=S)Nc2ccccc2)cc1	-0.5	5.1	6.0	-0.6	-5.9	4.0
O=C(NC(=S)Nc1cccc([N+](=O)[O-])c1)C1CCCCC1	-2.3	-12.1	2.6	11.4	1.1	-1.0

Five compounds already listed, arranged by molecular weight, largest number first:
SMILES	Six1-Eya2 blk	TRPV1 PAM	TRPML1 blocker	D2 potentiator	CtBP-E1A inh	TRPML1 ag
COc1ccc(CCNC(=O)Cn2cnc3c(cnn3-c3ccccc3Cl)c2=O)cc1OC	0.8	-0.2	-8.1	-11.3	-2.4	-0.1
CC(C)CCNC(=O)C1CCCCN1S(=O)(=O)c1ccc(F)cc1 (stereo not drawn)	5.1	-9.8	21.6	-10.8	10.6	0.6
Cc1cc(=O)[nH]c(SCC(=O)/C=C2\N(C)c3ccccc3C2(C)C)n1	-22.8	21.6	2.3	0.5	-12.1	6.0
NC(=S)C(c1ccccc1)c1ncc(C(F)(F)F)cc1Cl (stereo not drawn)	-1.5	3.9	-8.5	-13.0	-6.7	2.3
N#CC1(Nc2cccc(Cl)c2)CCCC1	1.2	nt	-0.1	-1.6	-0.1	-0.5

Next results follow:
SMILES	Six1-Eya2 blk	TRPV1 PAM	TRPML1 blocker	D2 potentiator	CtBP-E1A inh	TRPML1 ag
COC(=O)c1ccc(SCC(=O)NCc2ccccc2)c([N+](=O)[O-])c1	-6.4	-11.9	-13.9	-1.0	0.8	0.8
CCOc1ccc(NC(=O)CN2C(=O)CSc3ccc(S(=O)(=O)N4CCCC4)cc32)cc1	-9.1	14.3	1.4	-8.9	-5.6	-1.3
CN(C(=S)NC(=O)/C=C/c1ccc(F)cc1)C1CCCCC1	-13.4	-16.0	7.0	-15.4	-5.7	0.3
CC1(C)CC(=O)C=C(c2cccc(CO)c2)C1	-9.1	6.5	13.8	-1.4	-7.0	-0.7
Cc1c(NC(=O)c2ccc(NS(=O)(=O)c3ccccc3)cc2)c(=O)n(-c2ccccc2)n1C	-1.9	-3.7	6.6	-2.3	?	0.5
Cc1ccc(-c2nc(NCc3ccco3)c3ccccc3n2)cc1	-3.6	1.9	14.2	-17.6	nt	1.4
O=C(Nc1nccs1)c1cc(N2CCOCC2)nc2ccccc12	-10.8	-20.9	-5.7	4.8	-1.3	0.2
O=C(C[C@H]1C/C=C\CC[C@@H](Cc2ccc(F)cc2)C(=O)O[C@@H](c2ccccc2)CNC1=O)N[C@H](CO)Cc1ccccc1	6.4	nt	-9.7	-1.9	-6.4	-0.1
Cc1cc(C(=O)N/N=C/c2ccc(C)s2)n[nH]1	-0.7	-26.9	14.9	-0.3	3.3	-0.1
Cc1ccc(NC(=O)c2cc(NC(=O)C3CC=CCC3C(=O)O)ccc2N2CCOCC2)cc1 (stereo not drawn)	0.0	-9.1	50.1	8.8	5.2	-0.4
O=C(Nc1ccccc1)C1CCCCC1	-0.7	-0.4	-6.2	-7.7	-0.3	-0.8
c1ccc(-c2noc(-c3ccc4c(c3)OCO4)n2)nc1	0.4	30.0	1.6	0.4	13.6	-0.1
Cc1cc(N)c2ccccc2n1	-2.5	2.4	7.5	-2.7	-0.5	1.2
CCC(C(=O)OCC(=O)Nc1ccc(Cl)c(S(=O)(=O)N(C)C)c1)c1ccccc1 (stereo not drawn)	6.0	-10.6	9.6	-1.6	3.8	3.1
Cc1cc(N)n(-c2ccc([N+](=O)[O-])cc2)n1	-5.1	-0.9	6.8	16.4	-2.4	-0.9
Oc1ccccc1C1=Nc2ccccc2N=C(c2ccco2)C1	0.2	-3.5	21.9	-1.4	9.0	3.4
COC(=O)c1sc(-c2ccc(Cl)cc2)cc1N	-7.5	-1.3	21.2	-5.5	1.2	1.9
CC1CC(C)CN(C(=O)c2cc(-c3ccccn3)nc3ccccc23)C1 (stereo not drawn)	-0.7	8.7	-15.2	0.8	-9.0	4.3
COC(=O)c1ccccc1C(=O)N(Cc1cccnc1)CC1CCCN(C2CCCCC2)C1 (stereo not drawn)	0.8	-9.5	-9.6	-15.9	-6.1	-0.8
O=C(COC(=O)/C=C/c1ccc2c(c1)OCO2)Nc1ccc(S(=O)(=O)N2CCCC2)cc1	-20.7	6.0	7.8	1.4	0.9	0.1
Cc1ccccc1CSc1nc2n(n1)C(c1cccs1)C1=C(CCCC1=O)N2 (stereo not drawn)	0.2	0.5	-12.4	-5.2	-2.4	1.9
CC(C(=O)NCc1ccccn1)c1ccc([N+](=O)[O-])cc1 (stereo not drawn)	-1.3	1.9	-10.3	-1.4	-2.3	0.1
COc1ccc(C2=NOC(C(=O)NC(C)C)C2)cc1 (stereo not drawn)	-1.1	21.9	-5.0	7.4	-4.3	-0.2
CCCC(=O)n1nc(-c2cccnc2)nc1NCc1ccccc1	1.6	-9.4	16.5&-17.5	-19.4	0.4	-0.3&-0.2
Fc1ccccc1COc1ccc(C(=S)N2CCCC2)cc1	6.5	-7.3	nt	-21.2	nt	nt
Cc1ccc(Cn2c(SC3CCOC3=O)nc3ccccc3c2=O)cc1 (stereo not drawn)	-7.8	?	-5.3	-1.4	4.4	6.3
O=C(c1ccccc1)N1CCN(C2CCCCCC2)CC1	10.1	23.1	-7.1	-12.5	-1.0	0.5
COCCNC(=O)C(C)Oc1ccc(Cl)cc1Cl (stereo not drawn)	0.8	nt	2.5	-10.7	3.9	0.4
O=C(Cn1nnc2c(cnn2-c2ccc(F)cc2)c1=O)c1ccccc1F	13.1	-7.7	22.7	4.1	-3.8	0.4
COc1ccc(C(=O)C2CCCN(C(=O)c3cc(C)on3)C2)cc1F (stereo not drawn)	-0.3	-2.2	-2.3	-9.5	1.0	-0.9
CC1(c2ccc(Cl)cc2)NC(=O)N(CN2CCOCC2)C1=O (stereo not drawn)	-1.2	7.0	6.8	-2.7	1.8	0.1
COc1ccc(C/C(C)=N/NC(=O)c2cccnc2)cc1	-3.8	-8.8	2.1	-26.7	6.2	0.0
COc1cc(C2C(C#N)=C(N)Oc3n[nH]c(C)c32)ccc1OC(=O)c1ccccc1 (stereo not drawn)	?	-10.0	40.8	-6.8	?	0.3
Cc1ccc(-c2cc(NC(=O)c3ccccc3)on2)cc1	6.5	-5.9	2.1	-5.2	-0.6	8.7
COc1ccc(C)cc1NC(=O)CSc1nnnn1Cc1ccccc1	5.2	-11.9	43.8	-7.0	2.2	2.9
Cc1sc2ccccc2[n+]1CC(=O)O	2.4	-7.0	20.9	-4.8	2.7	0.6
N#Cc1cccc(NC(=O)CSc2n[nH]c(=O)[nH]c2=O)c1	2.9	5.5	9.3	-15.2	nt	0.0
Cc1cc(N2CCN(c3ccccc3)CC2)n2c(n1)nc1ccccc12	-17.2	-12.8	28.6	-4.0	-29.4	1.2
COc1ccc(NC(=O)c2ccc(CNc3c(N4CCCC4)c(=O)c3=O)cc2)cc1Cl	-18.6	10.8	-14.7	-4.5	-13.7	0.4
CCOC(=O)N1CCN(C(=O)c2ccc3nc4ccc(Cl)cc4c(=O)n3c2)CC1	6.9	7.1	-2.1	-0.2	5.2	0.0
COc1ccc(-c2nnc(SCC(=O)Nc3sc4c(c3C#N)CCCC4)n2-c2ccccc2)cc1	5.3	-3.1	23.9	-11.7	16.2	-0.2
CCC(C)Sc1nc(C)nc2c1c(=O)n(C)c(=O)n2C (stereo not drawn)	2.5	-4.1	4.4	1.1	8.7	1.0
COc1ccc(-n2c(SCC(=O)N3CCOCC3)nc(O)cc2=O)cc1	-16.0	4.0	-3.9	10.1	3.2	0.2
CSc1nsc2nc(=O)c(/C=C3\C=Nc4ccccc43)c(N)n12	-21.1	1.9	20.7	-6.4	-26.4	3.0
Cc1onc(-c2c(Cl)cccc2Cl)c1C(=O)N1C=CC(C(F)(F)F)=NCC1	22.3	-11.6	6.6	2.1	42.9	0.6
C/C(CCc1ccco1)=N\NC(=O)CNc1c(Br)cc(Br)cc1Br	2.3	8.7	-4.2	-13.3	nt	0.1
O=c1[nH][nH]c2c1[C@@H](c1ccc(F)cc1)O[C@H](C1CCCCC1)C2	2.9	nt	nt	nt	-9.8	-0.9
Cc1ccnc(Nc2nc3ccccc3s2)n1	2.7	-0.4	6.6	1.7	-15.5	1.1
O=C(c1sc2ccccc2c1Cl)N1CCN(c2ccccc2F)CC1	0.7	-1.9	20.2	-13.5	11.3	2.0
CCN(CC)c1ncnc2c1[nH]c1ccccc12	-13.4	-1.8	7.3	0.3	-5.9	-0.8
COc1ccc(NS(=O)(=O)c2ccc3nc(COc4ccc(Cl)c(C)c4)[nH]c3c2)cc1	1.5	0.5	4.9	19.2	4.3	0.6

This is a random part of the collection. About 0.95% of those tested had a hit in this group.
